Bioassay records: PubChem BioAssay, several laboratories
HIV Env fusion = inhibitors of HIV Env-mediated cell fusion. HeLa-JRFL Env/CEM21 cell fusion, luciferase. 1.1% of 360,000 active. AID 651610. inhibition, % at 12.3 µM;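 active = mean replicate inhibition score of at least 50 and every replicate individually at or above 50; inconclusive = only one of the two criteria met; inactive = mean below 50 and not all replicates reaching 50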;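 also: 0% = plate neutral controls and 100% = maraviroc near 300 nM; one replicate is shown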
Yeast UUG start = alters start codon recognition fidelity in yeast. AID 602363. activity score, % at 18.7 µM. S. cerevisiae UUG-firefly luciferase reporter, luminescence/redox ratio. 0.13% of 350,000 active;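 active = replicate mean at a twofold rise or more, about +100% in these data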;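 also: firefly luciferase made from a UUG start codon reports start codon fidelity; reporter light over untreated wells divided by growth signal over untreated wells; some hits fall short of that in this replicate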
CSC inhib = cancer stem cell inhibition; AID 2717; 1.1% of 300,000 active; cancer stem cell-like cells viability, luminescence; inhibition, % at 7.5 µM;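 active = mean at 75% or more and at least half the replicates too; inconclusive = mean and replicates disagree; tested in HMLE shEcad cells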;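 also: 0% = median of negative and 100% = median of positive control wells; the first replicate is given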
MT1-MMP act inh = blocks activation of human MT1-MMP. P50281. HT1080 RFP-PRO-GFP cells, GFP/RFP ratio fluorescence, overnight; percent of plate control window, DMSO zero. GFP/RFP ratio change, % at 20 µM. 0.061% of 360,000 active. AID 651647;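 active = GFP/RFP ratio change of at least 30% with cell ATP level not reduced by more than half and red fluorescence within 50% of control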; also: strong numbers were not always called active
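Test system: HT1080 RFP-PRO-GFP cells; Benchmarks: DMSO and RFP-L50D-GFP cell wells; Timing: cells overnight before dosing, compound overnight, 37 °C, 5% CO2; Compound: one 20 µM compound dose with 1% DMSO; Read-out: GFP/RFP fluorescence ratio.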
Rce1 inhib = blocks yeast Ras-converting enzyme; Q03530; yeast membranes, quenched prenylated peptide cleavage fluorescence; calls only; 0.27% of 290,000 active; AID 2563;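 active = fall in fluorescence gain of 50% or more versus controls, with final raw signal at or below 3038400; inconclusive = same 50% fall but final raw signal above 3038400; inactive = fall in fluorescence gain under 50%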;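 also: plate controls were neutral control wells for no effect and wells lacking membranes for full effect; tested at 10 µM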
Target sequence (Q03530 whole entry, looked up): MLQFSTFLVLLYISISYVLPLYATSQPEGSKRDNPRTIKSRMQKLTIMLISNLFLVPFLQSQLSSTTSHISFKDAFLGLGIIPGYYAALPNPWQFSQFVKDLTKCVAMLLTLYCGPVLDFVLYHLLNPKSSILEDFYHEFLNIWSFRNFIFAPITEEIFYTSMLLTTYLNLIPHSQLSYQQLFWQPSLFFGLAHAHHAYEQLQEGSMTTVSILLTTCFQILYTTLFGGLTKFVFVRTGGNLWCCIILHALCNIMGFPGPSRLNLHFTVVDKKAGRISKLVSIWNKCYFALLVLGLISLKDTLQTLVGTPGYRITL
eIF4H FP inh = inhibitors of RNA binding by human eIF4H; 0.94% of 290,000 active; inhibition, % at 35 µM; eIF4H fluorescence polarization binding assay; Q15056;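 active = 50% or more with normal probe brightness, or confirmed in later tests; inconclusive = above 50% with abnormal brightness, or retests that disagree; inactive = below 50% or failed in later tests; about a fifth of its hits are not listed in these tables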;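 also: calls also rest on retests at 20 µM and on dose response follow-up; 0% = protein and probe with vehicle and 100% = probe without protein; strong numbers were not always called active; many hits fall short of the cut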
PABP FP inh = blocks human PABP binding to poly(A) RNA. 1% of 290,000 active. inhibition, % at 35 µM. fluorescence polarization;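 active = 50% or more with normal probe brightness, or confirmed in later tests; inconclusive = above 50% with abnormal brightness, or retests that disagree; inactive = below 50% or failed in later tests; about a fifth of its hits are not listed in these tables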;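 also: calls also rest on retests at 20 µM and on dose response follow-up; controls were probe without protein and protein plus probe with vehicle; some compounds called inactive have numbers as strong as hits; many hits fall short of the cut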
Target sequence (P11940 whole entry, looked up): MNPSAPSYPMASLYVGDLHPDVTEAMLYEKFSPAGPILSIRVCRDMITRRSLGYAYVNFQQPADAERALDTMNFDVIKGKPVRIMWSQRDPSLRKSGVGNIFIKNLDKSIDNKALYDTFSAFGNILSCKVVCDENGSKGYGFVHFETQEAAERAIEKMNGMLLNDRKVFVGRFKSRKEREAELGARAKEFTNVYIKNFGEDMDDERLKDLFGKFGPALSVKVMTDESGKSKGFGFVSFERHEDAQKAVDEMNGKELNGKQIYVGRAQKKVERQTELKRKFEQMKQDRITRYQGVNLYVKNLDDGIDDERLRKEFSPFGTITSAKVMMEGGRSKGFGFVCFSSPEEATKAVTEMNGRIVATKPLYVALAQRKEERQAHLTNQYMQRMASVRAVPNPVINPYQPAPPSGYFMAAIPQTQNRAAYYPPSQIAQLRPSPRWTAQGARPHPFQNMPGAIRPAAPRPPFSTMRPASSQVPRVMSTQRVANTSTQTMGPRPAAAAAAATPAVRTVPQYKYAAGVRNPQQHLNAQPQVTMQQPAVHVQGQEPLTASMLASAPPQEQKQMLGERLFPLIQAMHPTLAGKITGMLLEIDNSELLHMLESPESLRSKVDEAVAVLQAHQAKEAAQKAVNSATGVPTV
eIF4H FP inh retest = also measured in eIF4H FP inh; calls as there; inhibition, %; compound at 20 µM; confirmation average;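 mean of two retest wells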
PABP FP inh retest = recorded beside PABP FP inh, whose call it bears; inhibition, %; compound at 20 µM; confirmation repeats;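 mean of two retest wells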
MT1-MMP act inh RFP = second read-out of MT1-MMP act inh, no call of its own (marks repeat the call); RFP signal change, %; measured here: RFP expression control read;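 0 = vehicle wells; hits needed this value within 50% of zero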
The depositor's hits bear a star; i = inactive; ? = inconclusive; / = not tested or not shown. An excerpt, so the mix of outcomes need not match the whole.

SMILES	HIV Env fusion	Yeast UUG start	CSC inhib	MT1-MMP act inh	MT1-MMP act inh RFP	Rce1 inhib	eIF4H FP inh	PABP FP inh	others
COc1ccc(-c2cc3ccccc3n2CC(O)CNC(CO)(CO)CO)cc1 (centres undefined)	-78	-11	0	3	1	i	-8	-5
Cc1cccc(C)c1NC(=O)CCCCCNS(=O)(=O)c1ccccc1	16	0	-8	-1	4	i	7	-6
COc1cc(C2N(c3cccc(Cl)c3)C(=O)C3CCCN32)cc(OC)c1OC (centres undefined)	2	-10	-11	1	4	i	1	-10
CCN(c1ccc(OC)cc1)S(=O)(=O)c1csc(C(=O)N2CCCC2)c1	6	-4	-12	0	-4	i	-16	-1
NC(=O)CSc1nnc(-c2cc(-c3cccs3)nc3ccccc23)o1	/	-14	/	-4	-1	/	-5	-2
C/C=C/C(=O)N1c2ccc(C)cc2C(C)=CC1(C)C	-9	-25	0	0	4	i	-10	-7
NC(=O)CC[C@@H]1NC(=O)[C@H](CO)NC(=O)c2cc([N+](=O)[O-])cc(I)c2NCCC[C@@H](C(N)=O)NC(=O)[C@H](Cc2ccc(O)cc2)NC1=O	23	/	-18	/	/	/	-7	4
COc1ccc(OC)c(CNC(=O)C2CCCN(c3nc4ccccc4o3)C2)c1 (centres undefined)	13	-9	-7	0	4	i	-12	4
Nc1cccn2c(-c3ccc(Cl)cc3)cnc12	-128	/	0	-24	-1	i	?	1
Cc1ccc(NC2(c3nnnn3-c3c(C)cccc3C)CCCCC2)cc1	10	/	29	-3	-3	i	-3	-12
CCOC(=O)C1CCN(C(=O)COC(=O)c2ccc(=O)n(Cc3ccccc3)n2)CC1	-8	-11	-4	-17	-4	i	/	/
O=C(O)C1CCCCC1C(=O)Nc1ccc(F)cc1F (centres undefined)	/	-14	-5	-1	1	i	-7	-6
CCc1ccc(C(=O)COC(=O)c2cnccn2)cc1	/	-44	-11	4	4	i	0	0
COc1ccc(C(=O)NCC(=O)Nc2ccc(F)cc2)cc1OC	/	-15	-9	-1	-3	i	2	-9
O=[N+]([O-])c1ccc(C=NN2CCOCC2)s1	-12	-3	/	12	-3	/	/	/
CSCCCNC(=O)c1ccc(OC2CCN(CCc3ccccc3)CC2)cc1	3	/	-15	-2	1	i	-10	-1
Cc1c(Cl)c([N+](=O)[O-])nn1CCCC(=O)Nc1ccc(Cl)cc1Cl	-8	9	-8	5	4	i	1	-2
O=C(COC(=O)c1ccccc1O)Nc1cccc(S(=O)(=O)N2CCCC2)c1	-1	-7	-12	6	1	/	/	/
CCN(CCO)c1ncnc2onc(-c3ccc(F)cc3)c12	-8	3	-3	0	-2	i	-2	-6
O[C@@H]1CN(CC2CCCCC2)[C@@H](c2ccc(Cl)cc2)C[C@H]1n1cc(-c2ccc(F)cc2)nn1	5	-5	/	1	0	/	/	/

Of the compounds above, these contain two or more sulfur atoms.
SMILES	HIV Env fusion	Yeast UUG start	CSC inhib	MT1-MMP act inh	MT1-MMP act inh RFP	Rce1 inhib	eIF4H FP inh	PABP FP inh	others
CCN(c1ccc(OC)cc1)S(=O)(=O)c1csc(C(=O)N2CCCC2)c1	6	-4	-12	0	-4	i	-16	-1
NC(=O)CSc1nnc(-c2cc(-c3cccs3)nc3ccccc23)o1	/	-14	/	-4	-1	/	-5	-2

Other entries.
SMILES	HIV Env fusion	Yeast UUG start	CSC inhib	MT1-MMP act inh	MT1-MMP act inh RFP	Rce1 inhib	eIF4H FP inh	PABP FP inh	others
N#CC(C#N)=Cc1cccn1-c1ccc(C(=O)O)cc1	10	/	9	1	2	i	87*	104	eIF4H FP inh retest=86*;PABP FP inh retest=47
O=C(COC(=O)/C=C/c1cccc(C(F)(F)F)c1)NC(=O)NCc1ccccc1	-18	-17	/	3	1	/	/	/
COc1ccccc1NC(=O)NNC(=O)c1ccc2c(c1)NC(=O)C(C)(C)O2	-2	-8	/	/	/	i	-4	-5
Cc1ccc(Cl)cc1N1CCN(S(=O)(=O)c2c(C)[nH]c(=O)[nH]c2=O)CC1	-80	-11	-2	0	7	i	-5	1
CCOc1ccc(NC(=O)CSc2nc3ccsc3c(=O)n2CCCCC(=O)O)cc1	-23	-2	/	2	1	/	/	/
Cc1ccc(S(=O)(=O)N/N=C/c2c(C)nn(-c3ccccc3)c2C)cc1	/	-6	23	4	2	i	-4	3
CCOc1cc(C=O)ccc1OS(=O)(=O)c1ccc(NC(C)=O)cc1	-4	/	-12	-1	-3	i	-10	-13
COc1ccc(N(CC(=O)Nc2ccc(C)c(F)c2)S(=O)(=O)c2c(C)noc2C)cc1	1	-10	-2	0	-5	i	-2	-5
O=C(Nc1ccccc1Cc1ccccc1)c1ccc2c(c1)SC1=NS(=O)(=O)CCN12	-32	/	-12	0	-2	i	-6	7
O=C(NCC1OCCc2ccccc21)c1cc(COc2ccc(F)cc2Cl)on1 (centres undefined)	-9	/	-5	0	2	i	-6	-10
O=S(=O)(Nc1cccc(S(=O)(=O)N2CCCCCC2)c1)c1ccccc1	21	-4	-5	3	-2	i	6	9
Cn1c(=O)n(C)c2cc(NC(=O)CSc3nnc(-c4ccccc4O)n3-c3ccccc3)ccc21	/	-11	-7	7	5	/	-3	-5
COc1ccc(/C=C2\SC(=O)N(CCc3nnc(N)s3)C2=O)cc1	-57	-5	-3	1	-3	i	3	3
Cc1onc(-c2ccccc2)c1NC(=O)N(CCC#N)Cc1ccccc1	-3	-17	-1	-1	1	i	1	0
CCC(=O)Nc1cccc(NC(=O)CSc2nnnn2C)c1	-68	-8	-14	3	5	/	-1	3
CCCCOc1ccc(OCCNC(=O)c2ccco2)cc1	-2	-13	/	-1	-7	i	0	1
COc1ccc(OCCCCOc2ccccc2Cl)cc1	/	-7	10	3	-2	i	-13	3
CCC(NC(=O)c1ccccc1O)c1ccccc1 (centres undefined)	-25	-2	-10	4	-5	i	1	-2
COc1ccc(NC2CCCN(C(=O)CCN3CCCO3)C2)cc1 (centres undefined)	-6	-9	-2	1	6	i	-8	2
CC(=O)Nc1cc2nn(-c3ccccc3)nc2cc1Cl	-143	-12	10	2	2	i	-11	5

A section from further up:
SMILES	HIV Env fusion	Yeast UUG start	CSC inhib	MT1-MMP act inh	MT1-MMP act inh RFP	Rce1 inhib	eIF4H FP inh	PABP FP inh	others
COc1ccc(NC2CCCN(C(=O)CCN3CCCO3)C2)cc1 (centres undefined)	-6	-9	-2	1	6	i	-8	2
CC(=O)Nc1cc2nn(-c3ccccc3)nc2cc1Cl	-143	-12	10	2	2	i	-11	5

Of the compounds above, four have an aryl thioether with sulfur outside any ring:
SMILES	HIV Env fusion	Yeast UUG start	CSC inhib	MT1-MMP act inh	MT1-MMP act inh RFP	Rce1 inhib	eIF4H FP inh	PABP FP inh	others
NC(=O)CSc1nnc(-c2cc(-c3cccs3)nc3ccccc23)o1	/	-14	/	-4	-1	/	-5	-2
CCOc1ccc(NC(=O)CSc2nc3ccsc3c(=O)n2CCCCC(=O)O)cc1	-23	-2	/	2	1	/	/	/
Cn1c(=O)n(C)c2cc(NC(=O)CSc3nnc(-c4ccccc4O)n3-c3ccccc3)ccc21	/	-11	-7	7	5	/	-3	-5
CCC(=O)Nc1cccc(NC(=O)CSc2nnnn2C)c1	-68	-8	-14	3	5	/	-1	3

Additional structures.
SMILES	HIV Env fusion	Yeast UUG start	CSC inhib	MT1-MMP act inh	MT1-MMP act inh RFP	Rce1 inhib	eIF4H FP inh	PABP FP inh	others
COc1ccc(NC(=O)c2cccc3c2C(=O)N(C2CCCCC2)C3)cc1	-1	3	17	2	-5	i	/	/
O=S1CCCSC1c1cccnc1 (centres undefined)	-30	-3	/	1	2	i	-13	0
Cc1ccc(S(=O)(=O)CC(=O)c2cc(C)c(O)c(C)c2)cc1	-15	-10	-2	-1	1	i	2.8*	61*	eIF4H FP inh retest=95*;PABP FP inh retest=84*
Brc1ccccc1Cn1c(-c2cscn2)nc2ccccc21	16	-19	3	5	5	i	-4	2
Cc1ccc(C(=O)/C=C2\NCC(C)NC2=O)cc1 (centres undefined)	/	-43	3	-1	7	i	-6	0
CC1CCCCC1NC(=O)CSc1nc2ccccc2[nH]1 (centres undefined)	-3	-18	-9	-1	-1	i	-5	3
O=C(CSc1ccccc1C(=O)O)NCC1CCCCC1	7	-14	-27	1	4	i	-4	-4
N#C/C(=C(\O)c1ccco1)c1ccccn1	/	-10	2	0	3	i	-3	65	eIF4H FP inh retest=12;PABP FP inh retest=16
C[C@]12CCC3C(CC[C@H]4CCCC[C@]34C)C1CC[C@@]2(O)CNCCO (some centres undefined)	9	-12	6	-1	2	i	-8	-3
CCN(C(=O)CSc1ccccn1)C1CCCCC1	1	-11	-24	3	0	/	/	/
O=C(CSc1nnc(CNC(=O)C23CC4CC(CC(C4)C2)C3)n1-c1ccc(F)cc1)Nc1ccccc1	/	/	-4	2	-2	i	-6	32
CCCS(=O)(=O)NC(=O)C1(C)CCN(C(=O)c2ccccc2OC(F)(F)F)C1 (centres undefined)	-2	-9	/	3	7	/	/	/
CN(C)S(=O)(=O)c1ccc(Cl)c(C(=O)NNC(=O)Cn2ccc(C(F)(F)F)n2)c1	-6	-9	/	-2	3	/	/	/
CCc1nc2ccc(C(=O)Nc3cc(-c4ccccc4)ccc3OC)cn2c1N(C=O)CCC(C)C	3	-14	/	-2	-14	/	/	/
CSc1cccc(CNC(=O)C2CCC(=O)N(CCCN3CCCC3=O)C2)c1 (centres undefined)	-58	-13	-17	1	2	i	5	14
COc1ccc(/C(N)=N/OC(=O)c2cccc([N+](=O)[O-])c2C)cc1	-22	/	-1	0	1	i	-4	-9
Cc1ccc(N(CN2C(=O)c3ccccc3C2=O)C(=O)c2ccc([N+](=O)[O-])cc2[N+](=O)[O-])cc1	-24	/	-6	-1	-1	/	-2	-16
CCOC(=O)c1sc2nccc(N(C)C)c2c1N=CNOCc1ccccc1	/	/	53	0	-11	i	2	0
O=C(CCCOc1ccc(Cl)cc1)Nc1cccc(C(=O)O)c1	-1	-3	-5	4	3	i	-10	8
Cc1cc(C)c2c(N)c(C(=O)NN3CC(=O)N(c4cccc(Cl)c4)CC3=O)sc2n1	-6	/	-5	1	-6	i	-1	-11
O=C(/C=C/c1ccc(Br)o1)Nc1nccs1	-46	/	10	2	-1	i	57*	7.4*	eIF4H FP inh retest=50*;PABP FP inh retest=85*
CCCCC(=O)N=c1sc2c(OC)ccc(OC)c2n1C	9	-9	-13	0	-3	i	8	13
CC[C@H](C)NC(=O)CCCCCn1c(=S)[nH]c2c([nH]c3ccc(OC)cc32)c1=O	-3	/	5	3	5	i	-7	-1
Cc1ccc(NC(=O)CN2C(=O)COc3ccc(S(=O)(=O)N4CCOCC4)cc32)cc1F	1	-24	-7	-2	3	i	/	/
